# Rango dissoc inh: qHTS Assay for Inhibitors of RanGTP induced Rango (Ran-regulated importin-beta cargo) - Importin beta complex dissociation | Potency, µM (doses to about 46.1 µM), without a hit: top-dose activity change, negative = inhibition | Biochemical FRET Rango-importin beta, RanGTP-induced dissociation | AID 540253, 2011 | actives 0.071% (n = 340,000) | Snurportin-1 (Homo sapiens) + GTP-binding nuclear protein Ran (Homo sapiens) + Importin …; active means falling FRET ratio curve, often poorly fitted, with flat reads before Ran was added; inconclusive means other falling curves, or compound fluorescence or quenching; inactive means flat or rising ratio curve;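 also: potency is read from the fitted curve at half-maximal effect; % of control where 0% means no effect; nearly all actives have a fitted effect of over 45% in size; -100% = wells without RanGTP and RCC1; the record marks most hits as doubtful in a second field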
#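 Recombinant Rango FRET biosensor (EYFP–snurportin 1 IBB–cerulean CFP10) at 0.1 uM premixed with 0.25 uM importin beta in PBS, 1 mM DTT, 0.02% Tween-20, 0.1% BSA. Compound added 5 min; RanGTP-RCC1 (0.6 uM Ran, 2 mM GTP, 0.2 uM RCC1) then triggers release, read at 45 min.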
# miR-21 reporter: qHTS Assay for Modulators of miRNAs and/orActivators of miR-21 | HeLa miR-21 FLuc reporter, luciferase, 48 h | Potency, µM (doses to about 38.3 µM), inactives show at the highest dose reporter change, positive = more light | 340,000 tested, under 10 active; active = well fitted rising curve with a large enough effect; inconclusive = small, poorly fitted or top-dose-only effect; inactive = no such curve, though single readings can be large or run the other way;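 also: % of control where 0% means no effect; miR-21 action dims this reporter so a rising signal means less miR-21 action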
#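 HeLa cells endogenously expressing miR-21, stably carrying CMV-driven firefly luciferase with a downstream miR-21 binding site, 2000 cells/well. Titrations up to approximately 40 uM, 48 hours; luciferase luminescence read.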
# GLA inh pH 4.5: qHTS Assay for Inhibitors of Human alpha-Galactosidase at pH 4.5 | purified enzyme, 4-MU-alpha-Gal fluorescence, pH 4.5 | Alpha-galactosidase A (Homo sapiens), P06280 | 230,000 tested, under 10 active | AID 1467, 2008 | activity change, negative = inhibition, % at 105 µM; inconclusive = small, poorly fitted or top-dose-only inhibition, or a rising curve; inactive = flat fitted curve, though single readings scatter; no compound was filed as active;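 also: 0% = full activity with enzyme and -100% = basal without enzyme; dose as in the result columns while the protocol names 77 µM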
# Rango-impB inh: qHTS Assay for Inhibitors of Rango (Ran-regulated importin-beta cargo) - Importin beta complex formation. Rango CFP/YFP FRET sensor + importin beta, 45 min. Potency, µM (highest dose often 92.2 µM), without a hit: at the top dose inhibition of complex formation. actives 0.031% (n = 340,000); active = rising FRET ratio curve, often small or poorly fitted; inconclusive = mostly compound fluorescence or quenching in the first reads; inactive = flat curves in all reads;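 also: potency is read from the fitted curve at half-maximal effect; 0% = DMSO wells and 100% = buffer wells lacking importin beta; nearly all actives have a fitted effect of over 15% in size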
# Target sequence (Q14974 whole entry, looked up): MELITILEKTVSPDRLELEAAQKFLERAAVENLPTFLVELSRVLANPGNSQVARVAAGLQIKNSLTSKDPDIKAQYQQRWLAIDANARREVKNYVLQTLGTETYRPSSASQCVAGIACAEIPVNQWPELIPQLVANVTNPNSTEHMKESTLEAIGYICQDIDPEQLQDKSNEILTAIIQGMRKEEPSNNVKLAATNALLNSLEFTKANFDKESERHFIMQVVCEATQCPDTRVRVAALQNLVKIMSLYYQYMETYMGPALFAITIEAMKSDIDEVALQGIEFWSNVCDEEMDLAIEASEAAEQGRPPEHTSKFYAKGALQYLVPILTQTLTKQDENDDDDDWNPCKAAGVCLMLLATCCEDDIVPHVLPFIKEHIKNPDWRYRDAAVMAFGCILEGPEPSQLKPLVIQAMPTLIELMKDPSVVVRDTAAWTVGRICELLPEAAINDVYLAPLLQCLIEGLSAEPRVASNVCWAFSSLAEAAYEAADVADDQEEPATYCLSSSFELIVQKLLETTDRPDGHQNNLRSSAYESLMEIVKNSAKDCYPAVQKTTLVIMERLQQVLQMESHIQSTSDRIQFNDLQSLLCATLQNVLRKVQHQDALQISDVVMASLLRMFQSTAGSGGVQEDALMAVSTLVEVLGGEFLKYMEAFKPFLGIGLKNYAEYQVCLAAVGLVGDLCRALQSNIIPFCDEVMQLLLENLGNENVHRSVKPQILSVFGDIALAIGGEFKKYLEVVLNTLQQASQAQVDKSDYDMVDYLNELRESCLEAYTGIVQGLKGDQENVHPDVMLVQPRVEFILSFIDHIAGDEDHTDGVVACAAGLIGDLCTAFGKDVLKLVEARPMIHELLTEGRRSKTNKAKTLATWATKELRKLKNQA
#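 Inhibition scored from the CFP 486 nm/YFP 530 nm FRET ratio 45 min after adding 0.125 microM importin beta to 50 nM Rango biosensor preincubated 5 min with compound (room temperature, PBS with DTT, Tween-20, BSA). No-importin wells as positive control.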
# Numbers without * were called inactive; ? = inconclusive; . = no result given; & = joins results of further samples. Only part of the results is shown (hit frequency here may not be typical).
# Order of results: Rango dissoc inh | miR-21 reporter | GLA inh pH 4.5 | Rango-impB inh
O=C1NC(=O)C(Cc2cccc(Oc3ccccc3)c2)S1 (stereo not drawn)
→ ? | -28% | . | -2.2%
CSc1cccc(NC(=O)CN(c2ccc(C)cc2C)S(C)(=O)=O)c1
→ 15% | 3% | 2 | 3.8%
Cc1ccc(/C=N/Nc2cn[nH]c(=O)n2)o1
→ -8% | -22% | 8 | -3.5%
CC(=O)c1c(C)nc2nonc2c1N
→ ? | -5% | 3 | ?
Cc1cc(C)c(C#N)c(SCC2COc3ccccc3O2)n1 (stereo not drawn)
→ -5% | -20% | -3 | -1.6%
O=c1c2ccccc2oc2cc(OCc3ccc(F)cc3)cc(O)c12
→ -4% | -4% | . | 0.1%
Cn1ccnc1SCC(=O)N1CCc2ccccc21
→ 6% | -45% | . | 0.0%
CC(C)N1CCN(Cc2ccc3c(c2)Cc2ccccc2-3)CC1CCO (stereo not drawn)
→ 17% | -2% | 4 | 4.0%
Cc1sc2ncnc(N3CCC(C(=O)Nc4ccc(Br)cc4Br)CC3)c2c1C
→ 14% | . | . | 1.4%
CCCCn1cnc2cc(C)c(C)cc21
→ -2% | 3% | 8 | 0.8%
Cc1cc(-c2ccc(C(C)C)c(S(=O)(=O)Nc3ccccn3)c2)on1
→ -1% | -38% | . | 3.2%
CC(C)C(=O)N1CCN(c2ccccc2NC(=O)c2ccc([N+](=O)[O-])o2)CC1
→ 1% | 16% | . | -1.6%
CCOc1ccc(C2N(c3ccc(F)cc3)C(=O)C3CCCN32)cc1 (stereo not drawn)
→ -11% | 2% | 5 | 1.8%
O=C(O)C1=CC[C@@H](c2ccc(Cl)cc2)N(S(=O)(=O)c2ccc(Cl)cc2)[C@H]1c1ccc(Br)cc1
→ 9% | . | . | -2.4%
Cc1nonc1CN(C)C(=O)CC1C(=O)NCCN1Cc1cccc(C(F)(F)F)c1 (stereo not drawn)
→ -18% | -2% | 0 | 3.1%
CC(C)c1ccc(OCC(O)CN2CCN(c3ccccn3)CC2)cc1 (stereo not drawn)
→ 18% | -4% | . | 0.8%
COc1ccc(NC(=O)c2c3c(nc4ccccc24)CCN(Cc2ccccc2)C3)c(OC)c1
→ 10% | 8% | -18 | ?
CC(C)NC(=S)NN=C1CCCCCCCCCCC1
→ 4% | -2% | 0 | 0.7%
CCOc1ccc(-c2noc(CCC(=O)NC3CCCC3)n2)cc1OC
→ -1% | -6% | . | -0.7%
COc1ccc(S(=O)(=O)N2CCC(C(=O)NCCC3=CCCCC3)CC2)cc1C
→ -12% | 3% | -8 | 2.1%
COc1ccc(C(=O)NC=C2C(=O)OC(C)(C)OC2=O)cc1
→ -2% | 0% | 1 | 0.3%
OC(CNCC#Cc1ccccc1)c1ccccc1 (stereo not drawn)
→ 18% | -13% | 4 | -0.7%
COc1ccc(NS(=O)(=O)c2c(C)n(C)c(=O)n(C)c2=O)cc1
→ -4% | -1% | . | 6.5%
COc1ccccc1C(=O)OCC(=O)NC1CCCC1
→ -12% | -38% | . | 0.3%
CCOc1ccc(C(=O)NCC(=O)NCC(c2ccco2)N2CCCCC2)cc1 (stereo not drawn)
→ -2% | . | . | -2.7%
Cc1cc(N2CCOCC2)n2nc(C)c(-c3ccc(Cl)cc3)c2n1
→ 20% | 2% | . | 0.3%
Nc1n[nH]c2cc(=O)n(-c3ccc(Cl)cc3)nc12
→ ? | 0% | 4 | ?
O=C(Nc1ccccc1)C1CCCCC1
→ -2% | -13% | -1 | -0.8%
CC(C)(C)c1ccc(C(=O)N2CCC(C(=O)N3CCCCC3)CC2)cc1
→ 0% | -16% | . | -2.5%
CCN(CCn1cccn1)Cc1cn[nH]c1-c1cccc2ccccc12
→ 1% | 0% | 1 | -6.3%
CC(C)(C)c1ccc(C(=O)c2c[nH]c(C(=O)NCCc3ccccn3)c2)cc1
→ 7% | -18% | -7 | -4.8%
NS(=O)(=O)c1ccc(NC(=O)CN2CCN(S(=O)(=O)c3ccc(F)cc3)CC2)cc1
→ -1% | 7% | . | 3.0%
CCn1c(-c2ccc(N(C)C)cc2)nc2ccccc21
→ 14% | 12% | 11 | -5.6%
O=C(COC(=O)/C=C/c1ccc(OC(F)F)cc1)NC(=O)NCc1ccccc1
→ -5% | . | . | 1.3%
COc1ccc(-c2c(-c3cc(OC)cc(OC)c3)n(C)c3ccc(-c4cc(F)cc(OC)c4)cc23)cc1
→ 20% | . | . | 4.3%
Cc1cc(C)c(NC(=O)C2CC(=O)N(c3ccc4c(c3)OCCO4)C2)c(C)c1 (stereo not drawn)
→ 8% | -3% | -1 | -3.8%
COc1ccc(C)cc1NC(=O)COC(=O)C1CCN(C(=O)c2ccc(Cl)cc2)CC1
→ -14% | 2% | -28 | -0.1%
O=S(=O)(Nc1nc2ccccc2[nH]1)c1ccc2ccccc2c1
→ 2% | -10% | 0 | 3.8%
COc1cc(OC)cc(C(=O)NCC(=O)N2CCCCC2)c1
→ 1% | -4% | 7 | 1.6%
Cc1cc(C(=O)CSCCCn2c(=O)[nH]c3ccccc32)c(C)n1C
→ -6% | -22% | 4 | 0.5%
CC(O)CNCc1cccc2ccccc12 (stereo not drawn)
→ 5% | 0% | 4 | 1.1%
O=C(Nc1ccc([N+](=O)[O-])cc1)N1CCc2ccccc2C1
→ 5% | -13% | . | -0.4%
O=C(CCC(=O)N1CCN(c2ccc(C(F)(F)F)cn2)CC1)c1cccs1
→ -8% | . | . | -2.6%
COc1cccc(-c2ncc3ccccc3c2COC(=O)c2ccc(C(C)(C)C)cc2)c1
→ 23% | . | . | 0.1%
Cc1ncc([N+](=O)[O-])n1CC(=O)Nc1ccccc1F
→ -10% | 1% | . | -1.0%
CNC(=O)Oc1ccc2c(c1)[C@]1(C)CCN(C)C1N2C (stereo partly drawn)
→ -11% | . | . | 6.4%
O=C(C1CC1)N1CCc2cc(S(=O)(=O)NC3CCN(Cc4ccccc4)CC3)ccc21
→ 3% | 0% | -8 | 1.8%
COc1cc2nc(CC(C)C)n(NC(=O)c3ccccc3Br)c(=O)c2cc1OC
→ 3% | -1% | . | 0.7%
O=C(c1ccc(F)cc1)N(C(=O)c1ccc(F)cc1)c1ncccn1
→ 22% | 0% | -5 | 2.6%
O=C(Nc1ccc(Cl)cc1)Nc1nnc(CSc2ccc(Cl)cc2)s1
→ 5% | -4% | 1 | 1.4%
COc1cc(C(=O)N2CCN(C3CCCCC3)CC2)cc(OC)c1OC
→ -5% | 0% | . | -0.7%
Cc1onc(-c2ccccc2Cl)c1C(=O)N1C=CC(C(F)(F)Cl)=NCC1
→ 5% | 0% | -4 | -5.4%
Cc1ccccc1CSc1nc(-c2ccccc2)cc(=O)[nH]1
→ 7% | 1% | -15 | 0.6%
O=S(=O)(Nc1nc2ccccc2nc1Cl)c1ccccc1
→ -3% | -4% | -3 | -0.9%
COc1ccc2c(c1)c1ncn(Cc3ccco3)c(=O)c1n2C
→ 2% | 2% | 15 | -3.6%
Brc1ccc(/C=N/c2nc3ccccc3n2CCN2CCOCC2)cc1
→ 1% | -2% | 2 | 0.4%
Cn1c(=O)cc(OCC(=O)NCc2cccs2)c2ccccc21
→ 19% | 1% | 4 | 5.1%
N#CCC(=O)NC(=O)NCC1CC1
→ -13% | -2% | -17&2 | ?
CCCCn1nnnc1NCc1cc(OC)c(OC)c(OC)c1
→ 0% | -2% | 4 | 1.3%
O=C(/C=C/c1ccco1)OCC1CCCN2CCCCC12 (stereo not drawn)
→ 26% | 1% | 5 | -0.6%

# Laid out differently: 3 of the compounds above
Molecule	Rango dissoc inh	miR-21 reporter	GLA inh pH 4.5	Rango-impB inh
Cn1c(=O)cc(OCC(=O)NCc2cccs2)c2ccccc21	19%	1%	4	5.1%
N#CCC(=O)NC(=O)NCC1CC1	-13%	-2%	-17&2	?
CCCCn1nnnc1NCc1cc(OC)c(OC)c(OC)c1	0%	-2%	4	1.3%

# Copied from the list.
# CNC(=O)Oc1ccc2c(c1)[C@]1(C)CCN(C)C1N2C (stereo partly drawn) in Rango-impB inh has 6.4%
# Cc1ccccc1CSc1nc(-c2ccccc2)cc(=O)[nH]1 in miR-21 reporter has 1%
# O=C(/C=C/c1ccco1)OCC1CCCN2CCCCC12 (stereo not drawn) in Rango dissoc inh has 26%
# N#CCC(=O)NC(=O)NCC1CC1 in GLA inh pH 4.5 has -17&2

# (more compounds)
# Order of results: Rango dissoc inh | miR-21 reporter | GLA inh pH 4.5 | Rango-impB inh
COc1cccc(NC(=O)C(Sc2nnc(Nc3ccccc3C)s2)c2ccccc2)c1 (stereo not drawn)
→ 8% | 22% | -15 | 0.3%
CN(CC(=O)Nc1cccc(F)c1)C(=O)CSc1ccccc1F
→ 6% | -2% | . | -2.7%
O=C1CCCN1CCCNS(=O)(=O)c1ccc(Br)cc1
→ -4% | 1% | 5 | -2.9%
CC1=Nc2ccccc2N=C(N)C1c1ccccc1 (stereo not drawn)
→ 7% | -29% | 3 | ?
O=C(Nc1cccc2ncccc12)c1ccc(Cl)cc1
→ 9% | -4% | . | 4.6%
Cn1c(=O)cc(OCC(=O)NCCCN2CCN(c3cccc(Cl)c3)CC2)c2ccccc21
→ -1% | 6% | 4 | -0.5%
O=C(O)C1CCC(Cn2c(SCc3cc(=O)n4ccccc4n3)nc3ccsc3c2=O)CC1 (stereo not drawn)
→ -1% | -3% | 20 | -0.6%
COc1ccc(-c2csc(NC(=S)NC(=O)c3cccs3)n2)cc1OC
→ -7% | -12% | 1 | -2.8%
CCc1ccc(NC(=O)C2C3/C=C\CCCCC32)cc1 (stereo not drawn)
→ 5% | -52% | -2 | 1.9%
COc1ccc(CCNS(=O)(=O)c2cc3c4c(c2)C(C)C(=O)N4CCC3)cc1OC (stereo not drawn)
→ 16µM* | -4% | . | -3.7%
Cc1ccc(/C=C/C(=O)OC(C)C(=O)Nc2ncc(Cl)cc2Cl)o1 (stereo not drawn)
→ -5% | -4% | 2 | -2.0%
CC(=O)c1ccc(N2CCN(C(=O)CCC(=O)c3cccs3)CC2)cc1
→ 2% | -5% | 1 | 0.0%
CCOc1cc(OCC)cc(C(=O)NCc2ccco2)c1
→ -5% | -4% | . | 2.5%
O=C(CNC(=O)c1ccccc1F)NCCN1C(=O)S/C(=C\c2ccccc2Cl)C1=O
→ 2% | -10% | . | 4.9%
COc1ccc(Sc2nc(-c3ccccc3)ncc2OC)cc1
→ 13% | 3% | -2 | -2.8%

# Rango dissoc inh, entries above that show a hit
# Order of results: Rango dissoc inh | miR-21 reporter | GLA inh pH 4.5 | Rango-impB inh
COc1ccc(CCNS(=O)(=O)c2cc3c4c(c2)C(C)C(=O)N4CCC3)cc1OC (stereo not drawn)
→ 16µM* | -4% | . | -3.7%

# Additional compounds:
# Order of results: Rango dissoc inh | miR-21 reporter | GLA inh pH 4.5 | Rango-impB inh
Cc1ccc(CNC(=O)C2CC3Cn4c(nc5ccccc54)C3N2C)o1 (stereo not drawn)
→ 1% | . | . | -0.4%
O=c1cc(-c2ccncc2)oc2ccccc12
→ -7% | -6% | -5 | -1.4%
CN(Cc1cccc(F)c1)C(=O)c1ccc2c(=O)n3c(nc2c1)CCC3
→ 9% | -3% | . | -0.2%
O=C(NCC(O)c1ccccc1)c1ccc(Cl)c(S(=O)(=O)N2CCCCC2)c1 (stereo not drawn)
→ -1% | 7% | . | -2.4%
CCN(C1=NS(=O)(=O)c2ccccc21)N(CC)S(=O)(=O)c1ccc(C)cc1
→ 2% | 11% | -5 | -0.2%
COc1ccc(C(=O)NCCN2CCOCC2)cc1[N+](=O)[O-]
→ 2% | 0% | . | -1.5%
CCOC(=O)C[n+]1c(C)ccc2c1CCC2
→ 16% | 4% | 1 | 0.0%
O=C(CCS(=O)(=O)Cc1cccc(Cl)c1)NCCc1ccccc1
→ 5% | 0% | . | 3.1%
CCOC(=O)c1c(NS(C)(=O)=O)sc2c1CCC(C)C2 (stereo not drawn)
→ 14% | -8% | 0 | ?
Brc1ccc(-n2cnc(-c3ccccc3)c2)cc1
→ -8% | -41% | . | 3.2%

# Screening data (PubChem)
